D2 potentiator = potentiates the human D2 dopamine receptor allosterically | P14416 | DiscoveRx D2 beta-arrestin cells, luminescence, 90 min; 100% = 57 uM dopamine signal | potentiation, % (test concentration not listed) | 360,000 compounds, 0.23% hits | AID 624464; active = potentiation of 50% or more; inconclusive = 30% to 50%; inactive = 30% or less;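 also: compound concentration not given in the record; tested on top of an EC20 dose of dopamine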
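D2 cells co-treated with compound plus 50 nM dopamine (EC20) for 90 min at 37 deg C to detect potentiation. Beta-arrestin recruitment was read as enzyme-fragment luminescence after 1 h at ambient temperature. Full response was set by 57 uM dopamine.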
D2 agonist = human D2 receptor agonism in beta-arrestin assay | DiscoveRx PathHunter D2 beta-arrestin, luminescence, 90 min; 100% = 57 uM dopamine signal | P14416 | 360,000 compounds, 0.084% hits | activation, % (concentration not given with the values); in the data active = activation above about 40%; inconclusive = about 15% to 40%; inactive = below about 15%; also: the text of the record calls up to 30% inactive
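Agonist mode: compounds alone added to overnight-plated D2 PathHunter cells for 90 min at 37 C, with 57 uM final dopamine (EC100) defining full response. Beta-arrestin recruitment detected by chemiluminescent reagent, read after 1 h at ambient temperature.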
TRPML1 inh = human mucolipin-1 channel inhibition; Q9GZU1; TRPML1-inducible cells, Ca2+ dye fluorescence, FDSS; stronger effect = lower value; inhibition of EC80 agonist-evoked calcium signal; activity change, negative = inhibition, % (test concentration not listed); 390,000 compounds, 0.02% hits; AID 624415; in the data active means activity change below about -50%; inconclusive means about -30% to -50%; inactive means above about -30%;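 also: stimulus is agonist 54-4 at its EC80 concentration; % is scaled to controls: 0 for no effect and ±100 for the full control effect; compound concentration not given in the record; the text of the record puts the active cut at -80%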
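Calcium fluorescence in TRPML1-DL cells induced overnight with Tet: a 110 s read after compound pin addition, then a 110 s antagonist read after challenge with 54-4 at 4 uM final (EC80).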
Six1-Eya2 inh = inhibitors of human Six1/Eya2 interaction; AID 651725; AlphaScreen GST-Six1/His-Eya2 binding, biochemical; stronger effect = lower value; control for the full effect not named in the record; Q15475+O00167; 360,000 compounds, 0.56% hits; activity change, % (concentration not given with the values); in the data active = activity change below about -65%; inconclusive = about -30% to -65%; inactive = above about -30%; also: % is scaled to controls: 0 for no effect and ±100 for the full control effect
Target sequence (O00167 whole entry, looked up): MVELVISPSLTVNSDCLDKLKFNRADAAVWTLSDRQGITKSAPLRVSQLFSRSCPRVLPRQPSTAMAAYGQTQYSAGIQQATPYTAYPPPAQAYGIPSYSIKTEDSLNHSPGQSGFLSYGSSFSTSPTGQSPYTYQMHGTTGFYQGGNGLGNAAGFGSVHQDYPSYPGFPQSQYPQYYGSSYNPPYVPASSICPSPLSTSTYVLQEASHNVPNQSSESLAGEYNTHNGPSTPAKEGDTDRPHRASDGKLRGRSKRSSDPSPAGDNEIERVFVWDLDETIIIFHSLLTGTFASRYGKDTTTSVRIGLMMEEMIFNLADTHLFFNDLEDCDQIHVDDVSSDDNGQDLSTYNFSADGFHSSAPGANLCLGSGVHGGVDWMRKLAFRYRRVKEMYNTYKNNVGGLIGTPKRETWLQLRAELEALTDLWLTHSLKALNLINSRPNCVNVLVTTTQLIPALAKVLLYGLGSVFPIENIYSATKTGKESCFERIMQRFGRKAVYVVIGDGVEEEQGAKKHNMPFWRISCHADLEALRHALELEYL
Target sequence (Q15475 whole entry, looked up): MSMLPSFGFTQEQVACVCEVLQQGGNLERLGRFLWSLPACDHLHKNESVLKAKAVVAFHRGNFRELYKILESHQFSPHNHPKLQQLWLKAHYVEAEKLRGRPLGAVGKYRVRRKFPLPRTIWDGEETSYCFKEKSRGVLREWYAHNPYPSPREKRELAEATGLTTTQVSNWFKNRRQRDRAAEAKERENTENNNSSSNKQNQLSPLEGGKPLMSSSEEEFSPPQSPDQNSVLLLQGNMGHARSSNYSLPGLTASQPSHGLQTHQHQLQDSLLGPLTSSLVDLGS
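AlphaScreen with GST-Six1 and His-Eya2 (5X mix: 250 nM and 500 nM), glutathione donor and nickel acceptor beads; buffer 50 mM Tris pH 8.0, 300 mM NaCl, 1 mM TCEP; 1 h at 37 C in the dark.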
TRPML1 ag = activates the human TRPML1 channel; TRPML1-expressing cells, Ca2+ dye fluorescence, FDSS; host cell line not named in the record; reference of the full effect not given here; activation, % (test concentration not listed); 410,000 compounds, 0.12% hits; AID 624414; in the data active = activation above about 50%; inconclusive = about 30% to 50%; inactive = below about 30%; also: 0% is about no effect; the text of the record puts the active cut at 80%
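Agonist activity was taken from a 110 s kinetic Ca2+ dye read on the FDSS after pinning compounds onto TRPML1-DL cells. The cells were seeded at 1,500/well with Tet inducer, incubated about 16 h, then dye-loaded at room temperature.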
PINK1 modulator = PINK1 expression modulation; 410,000 compounds, 0.2% hits; Potency, µM (top dose mostly 76.6 µM), without a hit: at the top dose activation (PINK1 increase), most hits filed as activators; PINK1 immunofluorescence, high-content cytometry, 24 h; active = well fitted activation curve with a large enough effect; inconclusive = small, poorly fitted or top-dose-only effect; inactive = flat fitted curve, though single readings scatter; cell line not stated here;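 also: potency is read from the fitted curve at half-maximal effect; % of control where 0% means no effect; nearly all actives have a fitted effect of over 65% in size; a mitochondrial uncoupler was the plate control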
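Compound titrations (5 concentrations, 24 h) on a stable cell line; DMSO and CCCP controls. Endpoint: fixed-cell PINK1 immunofluorescence with mitochondrial, cell and nuclear markers, scanned by microplate cytometer.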
* marks the source's active call; other numbers are inactive results; ? = inconclusive; . = not tested or not shown; & = joins results of further samples; [ ] = another dose, or the depositor's remark.

cpd	compound	D2 potentiator	D2 agonist	TRPML1 inh	Six1-Eya2 inh	TRPML1 ag	PINK1 modulator
1	CCNC(=O)C(=O)N1CCC2(CC1)OCCN2S(=O)(=O)c1ccc(C)cc1	3	-0.4	13	0	-0.3	-0.8%
2	Cc1ccc(-n2nnnc2SCC(=O)N(CC(C)C)c2c(N)n(CC(C)C)c(=O)[nH]c2=O)cc1	0	-5.7	-15	-1	-0.4	-0.2%
3	CCCC1(C(=O)OCC)NC(c2ccc(OC)cc2OC)C2C(=O)N(c3ccccc3)C(=O)C21 (stereo not given)	-4	-1.5	-2	-6	-0.2	-2.9%
4	COc1ccccc1CCNC(=O)CNC(=O)Cc1cccc2ccccc12	-9	-0.8	14	8	-1.0&0.4	0.8%&-0.1%
5	Cc1cc(C)c(S(=O)(=O)N(C)CC(=O)NCC2CCCO2)c(C)c1 (stereo not given)	-7	-1.6	-4	4	-0.4	-0.4%
6	Nc1c(Br)cc2c(c1Br)C(O)c1ccccc1-2 (stereo not given)	-21	-2.4	0	-5	0.3	-0.5%
7	COc1ccccc1CNC(=O)C1Cc2ccccc2C(=O)O1 (stereo not given)	-3	0.9	-18	9	4.4	0.2%
8	Cc1cc(Nc2ccccc2Cl)nc(-c2ccccc2O)n1	23	-0.4	-3	8	-0.6	3.1%
9	Cc1ccc(NC(=O)Cn2c(=O)c3ccccc3n3nncc23)cc1	.	.	-10	.	-1.0	2.5%
10	O=C1CN(C(=O)CSc2nc3ccccc3n2CCc2ccccc2)c2ccccc2N1	-17	-2.3	5	-14	2.6	3.1%
11	O=C(CC1C(=O)NCCN1Cc1cccc(F)c1)NC1CCCCCC1 (stereo not given)	-18	-0.3	16	-4	0.0	-2.2%
12	CSc1ncnc2c1ncn2CCCN1CCN(c2ncccn2)CC1	4	-0.1	-2	-1	-0.3	1.8%
13	CC(=O)N1CCc2c(sc3c2c(=O)n(Cc2ccccc2)c(=O)n3Cc2ccccc2Cl)C1	.	.	40	.	-0.9	1.2%
14	CCOC(O)[C@H]1N[C@@H](c2ccc(Cl)cc2)[C@@H]([N+](=O)[O-])[C@@H]1c1ccccc1 (stereo not given in full)	4	0.3	26	16	1.9	-0.1%
15	NC(=O)COC(=O)c1sc2cc(F)ccc2c1Cl	-4	-4.8	-12	-2	-0.3	0.9%
16	Cc1ccc(S(=O)(=O)NCCCNS(C)(=O)=O)cc1	9	3.5	12	5	-0.4	?

A few values from the entries so far.
TRPML1 ag, cpd 11 is entered as 0.0
Six1-Eya2 inh, cpd 12 is entered as -1
TRPML1 ag, cpd 9 is entered as -1.0
Six1-Eya2 inh, cpd 16 is entered as 5

Next part:
cpd	compound	D2 potentiator	D2 agonist	TRPML1 inh	Six1-Eya2 inh	TRPML1 ag	PINK1 modulator
17	Cn1c(CO)cnc1-c1ccccc1	-5	3.2	8	-3	-0.4	-0.8%
18	O=C(NCCCN1CCOCC1)C(=O)c1c[nH]c2ccccc12	-4	-1.3	25	-6	0.1	-1.2%
19	Cc1cc(C)c(NC(=O)CSc2nc3ncc(Br)cc3[nH]2)c(Cl)c1	-7	-2.0	25	1	2.3	6.0%
20	COc1ccc(CNC(=O)c2ccc(N3CCCC3=O)cc2)cc1	-6	-2.6	-20	1	1.8	6.1%[38.3 µM]
21	COC(C[C@H]1O[C@@H]1[C@H](O)[C@H](C)OCc1ccccc1)OC	-4	-0.8	-7	4	-0.3	-0.8%
22	NC(=O)CSc1nnc(-c2cccs2)n1-c1ccccc1	1	-0.5	-8	-1	1.7	-4.5%
23	COc1cccc(=O)c2c(C)n(-c3ccc(C(=O)O)cc3)c(C)c12	0	0.8	9	?	-0.1	-0.1%
24	COC(=O)c1cc2ccccc2c([N+](=O)[O-])c1O	-2	-1.7	4	3	-0.5	2.7%
25	O=[N+]([O-])c1cccc(CN2CCC(Cc3ccccc3)CC2)c1	-34	-0.7	-12	-9	0.1	8.4%
26	CCn1c(N2CCN(CC(=O)c3c[nH]c4ccccc34)CC2)nc2c1c(=O)[nH]c(=O)n2C	-11	-3.4	4	-4	0.0	-1.3%
27	CC(NC(=O)c1cccc(OC2CCN(C(=O)C3CC3)CC2)c1)c1ccc(F)cc1 (stereo not given)	-20	-2.9	5	2	0.9	0.0%
28	Cc1ccc(C)n1N1C(=O)/C(=C\c2ccc(Cl)cc2)SC1=S	2	-0.8	31	-20	-0.8	17%
29	COC(=O)C1CCc2c(ccc3c2CCCC3)C1=O (stereo not given)	-2	0.3	7	5	-1.2	3.9%
30	COc1cccc(C2N(c3cccc(Cl)c3)C(=O)C3CCCN32)c1 (stereo not given)	-3	-4.2	13	2	0.1	0.5%
31	Cn1nc(C(=O)Nc2cc(F)ccc2F)c2c1-c1ccccc1SC2	.	.	10	.	0.7	1.4%
32	Fc1ccccc1N1CCN(Cc2nnc(-c3ccc4c(c3)OCO4)o2)CC1	.	.	9	.	0.1	-0.4%

Arranged by value in D2 potentiator (falling): 3 of the compounds above.
entry | Structure | D2 potentiator | D2 agonist | TRPML1 inh | Six1-Eya2 inh | PINK1 modulator
10 | O=C1CN(C(=O)CSc2nc3ccccc3n2CCc2ccccc2)c2ccccc2N1 | -17 | -2.3 | 5 | -14 | 3.1%
11 | O=C(CC1C(=O)NCCN1Cc1cccc(F)c1)NC1CCCCCC1 (stereo not given) | -18 | -0.3 | 16 | -4 | -2.2%
27 | CC(NC(=O)c1cccc(OC2CCN(C(=O)C3CC3)CC2)c1)c1ccc(F)cc1 (stereo not given) | -20 | -2.9 | 5 | 2 | 0.0%

The results go on:
cpd	compound	D2 potentiator	D2 agonist	TRPML1 inh	Six1-Eya2 inh	TRPML1 ag	PINK1 modulator
33	CC(=O)c1cccc(NC(=O)CCNS(=O)(=O)c2cccc3nsnc23)c1	-7	-3.3	3	-9	-0.6	-2.1%
34	CCOC(=O)C1(CCCc2ccccc2)CCN(C(=O)C2=C(C)OCCO2)CC1	-4	-0.6	15	4	1.1	-1.8%
35	O=C(NCCc1ccccc1)C1CCN(S(=O)(=O)N2CCCCCC2)CC1	3	-3.1	-20	-7	-0.1	-2.1%
36	Cc1cc(NC(=O)CSc2nc3ccccc3n2CC(=O)N2CC(C)CC(C)C2)no1 (stereo not given)	-2	-3.3	30	2	1.2	28%[38.3 µM]
37	COC(=O)c1ccc(OCC(=O)Nc2ccsc2C(=O)OC)cc1	-23	-15	9	0	-0.8	7.4%
38	COCCN1CCN(C(=O)c2cc(COc3ccc(F)cc3Cl)on2)CC1	-13	6.4	8	1	-0.1	1.3%
39	CC(C)C[C@@H](NC(=O)[C@H]1CCCN1C(=O)Cc1ccccc1)C(N)=O	1	10.0	10	5	1.9	-2.4%
40	Fc1ccc(NC(=S)Nc2ccc(Br)cc2)cc1	-2	0.5	-15	-9	-0.2	?

Whole records from above.
Shown for `Cc1cc(NC(=O)CSc2nc3ccccc3n2CC(=O)N2CC(C)CC(C)C2)no1` (stereo not given) : D2 potentiator: -2; D2 agonist: -3.3; TRPML1 inh: 30; Six1-Eya2 inh: 2; TRPML1 ag: 1.2; PINK1 modulator: 28%[38.3 µM]
Shown for `COC(=O)c1ccc(OCC(=O)Nc2ccsc2C(=O)OC)cc1` : D2 potentiator: -23; D2 agonist: -15; TRPML1 inh: 9; Six1-Eya2 inh: 0; TRPML1 ag: -0.8; PINK1 modulator: 7.4%
Shown for `CC(=O)c1cccc(NC(=O)CCNS(=O)(=O)c2cccc3nsnc23)c1` : D2 potentiator: -7; D2 agonist: -3.3; TRPML1 inh: 3; Six1-Eya2 inh: -9; TRPML1 ag: -0.6; PINK1 modulator: -2.1%

Other results follow.
cpd	compound	D2 potentiator	D2 agonist	TRPML1 inh	Six1-Eya2 inh	TRPML1 ag	PINK1 modulator
41	Brc1ccc(CSc2ncnc3nc[nH]c23)cc1	-4	3.9	4	-3	-1.2	5.8%
42	O=C(Cn1ncc2c3ccccc3n(Cc3ccccc3)c2c1=O)NC1CCCCCC1	.	.	-16	.	3.9	1.0%
43	O=C(CSc1n[nH]c(-c2ccccn2)n1)Nc1ccccc1F	1	-3.0	-10	-92*	0.6	-0.4%
44	COC(=O)[C@@]1(Cc2ccc(F)cc2)[C@H]2c3cc(C(=O)N4CCCC4)n(Cc4cc(C)n(C)n4)c3C[C@H]2CN1C(=O)c1ccccc1	.	.	.	-11	1.8	-0.2%
45	Cc1cc(C)nc(NC2=NCC(=O)N2c2ccc(Cl)cc2)n1	-7	-4.2	-3	-1	-0.4	-0.4%
46	Cc1cccc(CN2CCN(c3ncccn3)CC2)c1	?	?	6	-12	0.3	-0.1%
47	CN1C(=O)C2(OCCCO2)c2ccccc21	-6	0.5	.	-2	.	1.2%
48	Cc1cccc(/N=C/c2sc3ccccc3c2O)n1	4	4.5	-3	-7	8.9	45µM*
49	O=c1[nH]c(=O)n(CCc2ccc(F)cc2)c(O)c1C=NCc1ccc2c(c1)OCO2	0	-1.7	-4	6	0.3	19%[38.3 µM]
50	Cc1ccc(N2CCN(S(=O)(=O)N3CCCCC3)CC2)c(C)c1	0	-0.8	-12	3	-0.7	2.9%
51	Cc1cccc(C)c1NC(=O)/C(C#N)=C/c1ccc(-c2ccc(C(=O)O)cc2)o1	-4	1.9	10	2	-0.3	1.0%
52	CCOC(=O)CNC(=O)c1cc2c(=O)[nH]c3ccc(C)cc3c2s1	-3	4.3	6	0	0.1	0.4%
53	CCOc1ccc(N2CC(C(=O)Nc3cccnc3)CC2=O)cc1 (stereo not given)	-2	-1.1	-18	0	0.2	-0.7%
54	CS(=O)(=O)N(CC(=O)Nc1c(F)cccc1F)Cc1ccccc1	-4	-4.2	-11	2	0.3	0.7%
55	COCCN(C(=O)COc1ccc(Cl)cc1)c1nnc(-c2cccnc2)s1	21	-1.2	9	5	0.3	5.9%
56	O=C(NCc1ccco1)C(=O)NCC1OCCN1C(=O)c1ccc(Cl)cc1 (stereo not given)	6	-1.2	3	1	-0.4	1.0%
57	S=c1[nH]nc(CCc2ccccc2)n1-c1ccccc1	-14	0.1	26	10	0.6	1.8%
58	Cc1cc(Cl)ccc1OCC(=O)OCC(=O)c1c(N)n(C)c(=O)n(C)c1=O	-3	-6.7	-14	1	0.6	0.3%
59	CN1CCN/C1=C(/C(Cl)=C(Cl)Cl)[N+](=O)[O-]	-3	-5.6	5	1	-0.4	5.3%
60	COC(=O)c1cc(NC(=O)CCc2c(C)nc3c(c(C)nn3C(C)(C)C)c2C)cc(C(=O)OC)c1	.	.	-10	.	-1.4	1.1%

Some entries already given with just Six1-Eya2 inh.
nr | SMILES | Six1-Eya2 inh
38 | COCCN1CCN(C(=O)c2cc(COc3ccc(F)cc3Cl)on2)CC1 | 1
29 | COC(=O)C1CCc2c(ccc3c2CCCC3)C1=O (stereo not given) | 5
34 | CCOC(=O)C1(CCCc2ccccc2)CCN(C(=O)C2=C(C)OCCO2)CC1 | 4
11 | O=C(CC1C(=O)NCCN1Cc1cccc(F)c1)NC1CCCCCC1 (stereo not given) | -4
1 | CCNC(=O)C(=O)N1CCC2(CC1)OCCN2S(=O)(=O)c1ccc(C)cc1 | 0

Screens (PubChem BioAssay)
